KCNQ2 pot = KCNQ2 (rat) channel potentiation; O88943; B-score at 10 µM; CHO-K1 KCNQ2, FluxOR thallium flux fluorescence; active compounds read high; 310,000 tested, 0.54% active; AID 2239;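 active = fluorescence ratio B-score at least 3 SD of library B-scores, with initial fluorescence B-score within 3 SD, cut at about 5.3 in these data; same plate scores as AID 2156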;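 note: B-score of peak minus minimum over baseline fluorescence ratio after K+ and Tl+ stimulus; positive B-score means potentiation of KCNQ2 with more thallium influx and brighter signal; only the inactives scoring about 0 or higher are listed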
Target sequence (O88943 whole entry, looked up): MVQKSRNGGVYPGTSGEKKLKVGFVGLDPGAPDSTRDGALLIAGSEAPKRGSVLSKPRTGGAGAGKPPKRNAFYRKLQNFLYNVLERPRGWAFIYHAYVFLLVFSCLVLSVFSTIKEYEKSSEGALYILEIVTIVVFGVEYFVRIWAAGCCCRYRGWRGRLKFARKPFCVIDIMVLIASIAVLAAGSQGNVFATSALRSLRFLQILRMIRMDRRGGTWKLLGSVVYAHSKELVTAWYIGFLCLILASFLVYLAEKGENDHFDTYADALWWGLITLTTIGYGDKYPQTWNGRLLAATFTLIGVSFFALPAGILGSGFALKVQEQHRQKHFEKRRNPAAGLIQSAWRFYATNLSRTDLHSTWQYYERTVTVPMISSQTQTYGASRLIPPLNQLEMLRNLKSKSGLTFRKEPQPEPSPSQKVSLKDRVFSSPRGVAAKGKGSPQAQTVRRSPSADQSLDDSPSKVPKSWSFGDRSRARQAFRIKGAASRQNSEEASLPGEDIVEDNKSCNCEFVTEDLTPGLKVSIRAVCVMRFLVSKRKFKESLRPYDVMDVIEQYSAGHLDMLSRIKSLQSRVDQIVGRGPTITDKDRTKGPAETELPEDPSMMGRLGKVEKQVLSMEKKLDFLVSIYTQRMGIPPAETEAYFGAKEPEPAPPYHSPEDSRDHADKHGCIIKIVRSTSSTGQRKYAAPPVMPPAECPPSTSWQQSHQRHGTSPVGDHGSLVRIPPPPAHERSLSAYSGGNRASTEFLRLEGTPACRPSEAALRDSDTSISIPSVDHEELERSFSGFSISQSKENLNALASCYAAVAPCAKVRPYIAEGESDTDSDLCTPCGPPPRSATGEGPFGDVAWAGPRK
KCNQ2 pot baseline = recorded beside KCNQ2 pot, whose call it bears; B-score; compound at 10 µM; measured here: initial fluorescence intensity artifact check;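 brightness before thallium and not channel activity; 0 = typical well and far values either way flag optical interference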
* hit, by the source's call. The list is partial. The share of hits here may be higher or lower than overall.

SMILES	KCNQ2 pot	KCNQ2 pot baseline
COc1cc(C2C(C#N)=C(N)N(N(C)C)C3=C2C(=O)CC(C)(C)C3)ccc1O (centres undefined)	1.47	-1.28
Cc1cc(C)nc(SC(C)C(=O)Nc2ccc(S(N)(=O)=O)cc2)n1 (centres undefined)	0.93	-0.44
COc1cccc(C(=O)NCC(c2ccco2)N2CCOCC2)c1 (centres undefined)	1.88	-1.36
O=C(CSc1nnc(NC(=O)C2CC2)s1)Nc1ccccc1Cl	0.95	-1.27
CC12CCC(=O)N1C(C(=O)NCCc1ccc(F)cc1)CS2 (centres undefined)	0.52	1.12
Cc1ncc([N+](=O)[O-])n1CC(=O)Nc1ccc(OC(F)(F)Cl)cc1	1.7	-0.32
Cc1nn(C)c(C(=O)NNC(=S)NCC(C)C)c1Cl	0.22	-0.23
COc1ccccc1CNC(=O)C(C)Sc1ccc(C)cc1 (centres undefined)	0.22	0.14
C/C(=C/C(=O)NCc1ccccc1)C(=O)O	0.89	-1.09
CCOc1cc(/C=C\c2[nH]c(=O)[nH]c(=O)c2[N+](=O)[O-])ccc1OC(C)CC (centres undefined)	0.01	1.05
Cc1ccccc1NC(=O)NC1(C(=O)N2CCN(C)CC2)CCCCC1	0.05	0.47
Cc1cc(N=CC2=C(O)CC(C)(C)CC2=O)no1	0.46	-0.64
Cc1ccc2sc(-c3ccc(NC(=O)c4cc(-n5cnnc5)ccc4Cl)cc3)nc2c1	0.48	-0.1
Cc1cc(Nc2cccc(F)c2)n2ncnc2n1	0.33	-0.05
CC1CCN(CCCNC(=O)c2ccc(CS(=O)(=O)Cc3ccccc3F)o2)CC1	0.7	-0.07
Cc1ccc([N+](=O)[O-])cc1N=Cc1ccc(Br)s1	0.49	0.95
Cc1cc(C(F)(F)F)nn1Cc1ccc(C(=O)NCc2ccco2)o1	0.58	-1.25
COc1ccccc1NC(=O)Nc1sccc1-c1nc2ccccc2s1	1.3	-3.15
COc1cccc(NC(=O)Nc2ccc3c(c2)nc(C)n3C)c1	1.5	0.44
COc1ccc(C)cc1S(=O)(=O)N(C)CC(=O)N1CCC(C)CC1	0.48	-2.08
CCOc1cccc(C2C(C#N)=C(N)Oc3cc(C)[nH]c(=O)c32)c1OCC (centres undefined)	1.12	0.58
COC(=O)c1ccc(NS(=O)(=O)c2ccc(SC)cc2)cc1	0.56	0.96
COc1cc(OC)cc(C(=O)NNC(=O)CCC(=O)c2cccs2)c1	0.77	-0.05
O=C(Cc1cccs1)N1CCCC(c2nc3c(nnn3Cc3ccccc3Cl)c(=O)[nH]2)C1 (centres undefined)	0.56	-1.22

Whole records, looked up by structure. Values in the order: KCNQ2 pot | KCNQ2 pot baseline
Entry for `COc1cccc(NC(=O)Nc2ccc3c(c2)nc(C)n3C)c1` = 1.5 | 0.44
Entry for `Cc1ccc([N+](=O)[O-])cc1N=Cc1ccc(Br)s1` = 0.49 | 0.95
Entry for `COc1ccc(C)cc1S(=O)(=O)N(C)CC(=O)N1CCC(C)CC1` = 0.48 | -2.08

More results follow:
SMILES	KCNQ2 pot	KCNQ2 pot baseline
CCCCc1cc(=O)oc2cc(C)cc(OC(C)C(=O)NCc3ccncc3)c12 (centres undefined)	0.13	1.98
CCCCCn1c(CN2CCN(C)CC2)nc2c1c(=O)n(C)c(=O)n2C	0.74	0.47
Oc1ccccc1/C=N/n1cnn(Cc2ccccc2Cl)c1=S	0.92	0.28
Cc1ccc(NC2c3ncccc3C(=O)N2c2ccccc2C)cc1C (centres undefined)	2.65	-0.18
CSc1ccccc1NC(=O)c1cc(CC(C)C)on1	0.08	0.75
O=C(NCC1CCCO1)c1coc2nc3ccccc3nc12 (centres undefined)	1.05	-1.19
CC(=O)NC(Cc1ccccc1)C(=O)NC1CCN(C(=O)NC2CCCCC2)CC1 (centres undefined)	0.18	0.13
CC(C)c1c(O)nc(SCC(=O)N2CCOCC2)[nH]c1=O	1.19	0.65
COc1ccc(CC(=O)NC2CCN(CC(=O)Nc3ccc4c(c3)OCCO4)CC2)cc1OC	0.46	-0.41
CCN(CCn1cccn1)C(=O)CCc1nnc(Cc2c[nH]c3ccccc23)o1	1.25	1.49
COc1ccc(CCNC(=O)COc2ccccc2[N+](=O)[O-])cc1OC	0.39	2.21
CC(C)CNS(=O)(=O)c1ccc(CC(C)C)cc1	0.16	0.59
CCOC(=O)/C(=N/Nc1ccccc1OC)N1CCCc2ccccc21	1.83	0.02
COc1cccc(OC)c1C(=O)NNS(=O)(=O)c1ccc2ccccc2c1	2.17	0.08
CCOc1ccc(NC(=O)CNC(=O)c2nn(-c3ccc(OC)c(OC)c3)c(=O)c3ccccc23)cc1	1.18	-0.81
COc1cccc(C(=O)CC(=O)C(=O)Nc2cccc([N+](=O)[O-])c2C)c1	0.03	0.12
COc1ccc(OC)c(NC(=O)CSc2ccc(-c3ccco3)nn2)c1	0.51	0.06
Cc1ccc(-c2cc(C(F)F)n3ncc(C(=O)Nc4cn(C)nc4C)c3n2)cc1	0.98	-0.04
O=C(COc1ccccc1O)Nc1ccccc1Cl	1.09	-2.56
Cn1c(=O)c2c(nc3n2CC(COc2ccccc2)O3)n(C)c1=O (centres undefined)	0.24	0
O=C(c1cccs1)N1CCN(Cc2ccncc2)CC1	0.19	0.31
COc1ccccc1C(=O)Nc1ccc(N2CCN(Cc3ccccc3)CC2)cc1	0.53	-0.77
CC(C)CSc1nnc2c(n1)[nH]c1ccccc12	0.78	-1.51
CC1c2[nH]c3ccccc3c2CCN1S(C)(=O)=O (centres undefined)	0.19	-0.77
Nc1ccc2nc(SCC(=O)Nc3ccc(N4CCOCC4)c(Cl)c3)sc2c1	0.14	0.09
O=C(Nc1c(O)c2ccccc2[nH]c1=O)c1ccco1	0.11	0.54
CCCCc1nnc(NC(=O)CSCc2cc(=O)n3ccsc3n2)s1	0.06	0.63
Cn1c(SCC(=O)Nc2cccc(F)c2)nc2c([nH]c3ccccc32)c1=O	0.28	-0.42
CCOC(=O)c1oc2nc(C(C)C)c3c(c2c1N)CCC3	0.59	-1.78
COc1ccc(S(=O)(=O)N2CCC(C(=O)N[C@@H](C)C(=O)N3CCCCCC3)CC2)cc1	1.22	0.27
N=c1c2c3c(sc2ncn1Cc1ccccc1)CCCC3	2.2	0.34
Cc1ccc(C)c(-n2c(SCC(=O)NC(C(=O)O)C(C)C)nnc2-c2cccc(Cl)c2)c1 (centres undefined)	0.03	-0.58
COC(=O)c1cnc(NNC(=O)c2ccc([N+](=O)[O-])cc2)nc1C(F)(F)F	2.27	-0.72
Cc1nc2nc(-c3ccccc3)cc(=O)n2[nH]1	0.62	0.49
Cc1cc(N2CCN(S(=O)(=O)c3ccc4ccccc4c3)CC2)n2ncnc2n1	0.06	2.41
Cc1ccc(N(Cc2ccccc2)C(=O)c2cccc(S(=O)(=O)N3CC(C)OC(C)C3)c2)cc1 (centres undefined)	0.29	0.11
CCOC1(C(F)(F)F)NC(=O)N(Cc2ccc(OC)cc2)C1=O (centres undefined)	1.18	-0.02
CCCCOc1ccccc1C1CC(=O)NC2=C1C(=O)CCC2 (centres undefined)	0.03	-0.65
COc1cc(C2CC(=O)N3CN(c4ccccc4C)CSC3=C2C#N)cc(OC)c1OC (centres undefined)	1.5	1.09
COc1cccc(C2C(C(=O)c3sc(C)nc3C)=C(O)C(=O)N2CCN2CCOCC2)c1 (centres undefined)	0.64	-2.83
O=C(Nc1ccc(F)cc1)Nc1ccc(NC(=O)c2ccccc2O)cc1	0.5	-0.34
OCC[C@@H]1C[C@H](O)[C@@H](O)[C@]2(CCCCO2)O1	0.01	-1.21
CSCC[C@H](NC(=O)CCNC(C)=O)c1nc2ccccc2[nH]1	0.36	-1.52
Cc1c(C(c2ccccc2Br)c2c(C)n(C)n(-c3ccccc3)c2=O)c(=O)n(-c2ccccc2)n1C	1.02	-0.47
CCOC(=O)N1CCC(Nc2c(NCCCN3CCN(c4ccc(OC)cc4)CC3)c(=O)c2=O)CC1	0.95	-0.58
Cc1cccc(NC(=O)c2c(C)cc(=O)oc2C)n1	0.93	-0.47
CCS(=O)(=O)N1CCN=C1SCc1ccc(F)cc1	1.37	-1.64
CCOc1ccc(N(C(=O)CNS(=O)(=O)c2ccccc2)C(CC)C(=O)NCc2ccco2)cc1 (centres undefined)	1.53	-0.01
N#Cc1ccc(Sc2ccccn2)c([N+](=O)[O-])c1	2.86	0.17
CCCCc1ccc(S(=O)(=O)NNC(=S)NCc2ccco2)cc1	0.45	0.84
COC(=O)C1(C)NC(c2ccco2)C2C(=O)N(c3ccc(C)cc3)C(=O)C21 (centres undefined)	0.78	1.36
O=C(N/N=C/c1cc(Br)ccc1OC(=O)c1ccc(Br)cc1)c1ccncc1	1.35	-0.69
Cc1cc(C)nc(Nc2ccc(N3CCOCC3)cc2)n1	1.77	-3.18
Cc1c(C(=O)Nc2ccccc2)cn2c(nc3ccccc32)c1C#N	0.64	-0.34
NC(CCCCCP(=O)(c1ccccc1)c1ccccc1)C(=O)O (centres undefined)	0.3	0.82
O=C(Nc1ccc(N2CCCCC2)cc1)c1ccc2c(c1)OCCO2	0.11	-0.63
Cc1sc2nc(SCC(=O)NCCO)n(C)c(=O)c2c1C	1.29	-0.73
CC1CCN(C(=O)C2CCN(S(=O)(=O)c3cnc[nH]3)CC2)CC1	0.38	-0.24
CN1C(=O)c2ccc(C(=O)NCc3ccccn3)cc2C1=O	0.01	1.1
COc1ccc(N(CC(=O)N/N=C(\C)CCc2ccccc2)S(=O)(=O)c2ccc(C)cc2)cc1	0.26	-0.88

New compounds follow:
SMILES	KCNQ2 pot	KCNQ2 pot baseline
CN1CCN(c2ccc(-c3cccc(NC(=O)COc4ccccc4)c3)nn2)CC1	1.51	-0.63
O=C(NCCc1ccc(C(F)(F)F)cc1)c1ccc(Cl)nc1	0.34	1.66
Cc1cc(/C=N/NC(=O)c2nn(C)cc2Cl)c(C)n1-c1cccc(Br)c1	0.37	-0.48
O=C(N/N=C/C(Br)=C/c1ccccc1)C(O)c1ccccc1 (centres undefined)	2.1	0.02
CCOC(=O)c1nnn2c1nc(N(CC)CC)c1ccccc12	0.7	-0.09
[N-]=[N+]=NCCN1CCN(Cc2ccccc2)CCC1=O	2.05	0.1
CC1CCN(C(=O)COc2ccc(S(=O)(=O)N3CCOCC3)cc2)CC1	0.37	-1.92
COc1ccc(C2(C(=O)NCc3ccccc3Cl)CCOCC2)cc1OC	0.8	-1
Cc1c(C(=S)Nc2ccccc2)cnn1-c1ccccc1	0.57	0.06
CC(=O)Nc1ncc(N=Nc2cccc(C(F)(F)F)c2)s1	0.23	0.15
CC(C)NC(=O)C1CCCN(S(=O)(=O)c2ccc(-n3cnnn3)cc2)C1 (centres undefined)	0.04	0.9
CCCCSCCCNC(=O)CS(=O)Cc1nc(-c2cccc(C)c2)oc1C (centres undefined)	1.22	-0.67
CN(c1ccc(OCC(=O)OCC(=O)Nc2ccc(F)cc2)cc1)S(=O)(=O)c1ccc(Cl)cc1	0.68	-0.42
O=C1NN(c2ccccc2)C(=O)/C1=C/c1cccs1	0.42	-0.02
O=C1CCCC(=O)N1c1ccc(O)cc1	1.07	-1.28
Cc1ccc(C)c(Cn2c(CO)nc3ccccc32)c1	0.67	1.38
Cc1ncc(CO)c2cc(C(N)=O)c(=Nc3ccccc3)oc12	4.08	-1.11
Cc1cc(C)cc(N2CC(C(=O)O)CC2=O)c1 (centres undefined)	0.33	-0.15
Cn1nnnc1SCC(=O)Nc1ccccc1Cc1ccccc1	1.01	-1.32
CCOC(=O)c1c(NC(=O)C2C3C=CC(C3)C2C(=O)O)sc2c1CC(C)CC2 (centres undefined)	3.04	1.02
COc1ccc(-c2cc(-c3ccccc3)nc(SCC(=O)Nc3nccs3)c2C#N)cc1	1.64	-0.98
Cc1ccc(-c2csc(NC(=O)N3CCOCC3)n2)cc1	0.63	0.33
N/C(=N\OC(=O)c1ccc(Br)o1)c1ccccn1	0.64	0.6
COc1ccc(CN(C)C(=O)CNC(=O)Cc2cccc3ccccc23)c(OC)c1OC	0.01	0.01

4 entries from above, with each value named.
O=C1NN(c2ccccc2)C(=O)/C1=C/c1cccs1
  KCNQ2 pot = 0.42
  KCNQ2 pot baseline = -0.02
Cc1ccc(C)c(Cn2c(CO)nc3ccccc32)c1
  KCNQ2 pot = 0.67
  KCNQ2 pot baseline = 1.38
O=C1CCCC(=O)N1c1ccc(O)cc1
  KCNQ2 pot = 1.07
  KCNQ2 pot baseline = -1.28
Cc1cc(C)cc(N2CC(C(=O)O)CC2=O)c1 (centres undefined)
  KCNQ2 pot = 0.33
  KCNQ2 pot baseline = -0.15

(listing goes on)
SMILES	KCNQ2 pot	KCNQ2 pot baseline
COc1cccc(NC(=O)C2C(c3ccccc3)C2(Cl)Cl)c1 (centres undefined)	9.49*	-0.77*
N#C/C(=C(/O)COC(=O)CCCNC(=O)c1ccc(Cl)cc1)c1nc2ccccc2[nH]1	1.82	1.49
c1ccc2c(NCC3CCCO3)nc(N3CCCCC3)nc2c1 (centres undefined)	0.09	-0.35
C=C(C)C1CC=C(C)/C(=N/NC(=O)c2cccc([N+](=O)[O-])c2)C1 (centres undefined)	0.52	-1.05
Cc1cccc(N2C(=O)c3cccc4cccc(c34)C2=O)c1	0.02	0.43

In a second layout: results already given
The line under a structure holds: KCNQ2 pot, KCNQ2 pot baseline
- C=C(C)C1CC=C(C)/C(=N/NC(=O)c2cccc([N+](=O)[O-])c2)C1 (centres undefined)
→ 0.52, -1.05
- Cc1cccc(N2C(=O)c3cccc4cccc(c34)C2=O)c1
→ 0.02, 0.43
- c1ccc2c(NCC3CCCO3)nc(N3CCCCC3)nc2c1 (centres undefined)
→ 0.09, -0.35
- N#C/C(=C(/O)COC(=O)CCCNC(=O)c1ccc(Cl)cc1)c1nc2ccccc2[nH]1
→ 1.82, 1.49

Source: PubChem BioAssay
